Compound activity: PubChem, National Center for Advancing Translational Sciences (NCATS)
Cruzain inh noDet = cruzain (T. cruzi) inhibition without detergent. Potency, µM, inactives show max response, negative = inhibition, usual class: inhibitors. purified cruzain, Z-FR-AMC fluorescence, no detergent. P25779. AID 1476. 200,000 compounds, 2.3% hits;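 note: plate controls were enzyme without inhibitor for no effect and buffer without enzyme for full effect; nearly all actives have a fitted effect of over 40% in size; top concentration of the series not given in the record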
Target sequence (P25779 123-467 limits assumed): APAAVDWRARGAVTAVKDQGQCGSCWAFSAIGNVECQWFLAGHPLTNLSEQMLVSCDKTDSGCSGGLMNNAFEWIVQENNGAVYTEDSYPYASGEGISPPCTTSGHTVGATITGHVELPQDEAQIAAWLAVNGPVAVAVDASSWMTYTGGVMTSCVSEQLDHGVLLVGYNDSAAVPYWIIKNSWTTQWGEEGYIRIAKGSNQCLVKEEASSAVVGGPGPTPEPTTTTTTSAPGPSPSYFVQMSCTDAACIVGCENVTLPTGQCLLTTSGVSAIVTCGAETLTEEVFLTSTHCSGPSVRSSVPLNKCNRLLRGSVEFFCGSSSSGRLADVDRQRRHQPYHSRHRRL
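Purified cruzain at 1.5 nM, pre-incubated 15 min with compound at room temperature in 100 mM sodium acetate pH 5.5, 5 mM DTT, 0.00005% Triton X-100. Reaction started with 2 uM Z-FR-AMC; AMC fluorescence increase over 60 s gives rate.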
LASV entry inh = Lassa virus entry inhibition. Lassa virus pseudotype entry inhibition, cell reporter; control for the full effect not named in the record. Potency, µM (series often up to 37.9 µM), inactives show at the highest dose activity change, negative = inhibition, hits mostly inhibitors. 300,000 compounds, 1.2% hits. AID 540256; active means well fitted inhibition curve with a large enough effect; inconclusive means small, poorly fitted or top-dose-only effect, or effect the other way; inactive means flat fitted curve, though single readings scatter; tested in HEK293 cells; note: % is set by controls: 0 for no effect and ±100 for the full control effect; nearly all actives have a fitted effect of over 50% in size; luciferase read-out
Cruzain Triton = inhibitors of Trypanosoma cruzi cruzain with detergent. P25779. Potency, µM, without a hit: max response, negative = inhibition, usual class: inhibitors. 200,000 compounds, 0.43% hits. purified cruzain, Z-FR-AMC fluorescence, 0.01% Triton;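 note: plate controls were neutral wells for no effect and buffer without enzyme for full effect; nearly all actives have a fitted effect of over 40% in size; top concentration of the series not given in the record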
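Detergent-containing run (0.01% Triton X-100) in acetate buffer pH 5.5 with 5 mM DTT: enzyme at 1.5 nM final, 15 min compound preincubation at room temperature, then 2 uM Z-FR-AMC substrate. Activity taken as 60 s fluorescence increase at 360/450 nm.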
Marburg entry inh = inhibitors of Marburg virus binding or cell entry | Marburg virus pseudotyped entry inhibition, cell reporter; control for the full effect not named in the record; about a third of the inactives were read at about 46 µM | AID 540276 | Potency, µM (top dose mostly 37.8 µM), without a hit: at the top dose activity change, negative = inhibition, most hits filed as inhibitors | 300,000 compounds, 1.8% hits; active = well fitted inhibition curve with a large enough effect; inconclusive = small, poorly fitted or top-dose-only effect, or effect the other way; inactive = flat fitted curve, though single readings scatter; tested in HEK293 cells; about a fifth of its hits are not listed in these tables; note: % is set by controls: 0 for no effect and ±100 for the full control effect; luciferase read-out
RE007 growth inh = less growth of the S. pombe RE007 Vpr strain. S. pombe RE007 Vpr strain, BacTiter-Glo ATP luminescence, 24 h; control for the full effect not named in the record. Potency, µM (doses to about 92.2 µM), inactives show top-dose activity change, negative = less growth. 360,000 compounds, 0.21% hits; active = well fitted falling curve with a large enough effect; inconclusive = small, poorly fitted or top-dose-only effect; inactive = no such curve, though single readings can be large or run the other way;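 note: % is set by controls: 0 for no effect and ±100 for the full control effect; nearly all actives have a fitted effect of over 50% in size; the assay follows cell death caused by Vpr and the record does not say whether a fall means rescue or toxicity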
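Fission yeast strain RE007, carrying one chromosomally integrated HIV-1 vpr copy, was seeded at OD 0.01 in PMG+AL medium with 23 nL pinned compound. After 24 h at 30 °C and 99% humidity, viability was read by BacTiter-Glo luminescence.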
SARS PLpro yeast = inhibitors of SARS-CoV papain-like protease in yeast. Potency, µM (top dose mostly 32.9 µM), for the others: at the top dose activity, positive = growth rescue. 330,000 compounds, 0.19% hits. S. cerevisiae expressing SARS-CoV PLpro, growth rescue; control for the full effect not named in the record. AID 485353; active means well fitted rising curve with a large enough effect; inconclusive means small, poorly fitted or top-dose-only effect; inactive means no such curve, though single readings can be large or run the other way; note: 0% is about no effect; nearly all actives have a fitted effect of over 55% in size; growth read by luminescence after 48 h
NS1 inh = influenza NS1 inhibition | S. cerevisiae slowed by influenza A NS1, growth recovery by OD600 | Potency, µM (top dose mostly 46.1 µM), for the others: at the top dose activity, positive = more growth | 270,000 compounds, 0.4% hits | AID 2326; active means well fitted rising curve with a large enough effect; inconclusive means small, poorly fitted or top-dose-only effect; inactive means no such curve, though single readings can be large or run the other way; note: nearly all actives have a fitted effect of over 50% in size
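OD600 was taken as the measure of yeast growth restored by compound in an NS1-expressing S. cerevisiae strain. Cells had been washed out of glucose medium and diluted 1:100 into galactose -URA medium, pH 6.0.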
StopGo reporter = FMDV 2A StopGo reporter, luciferase signal; 410,000 compounds, 1.2% hits; Potency, µM (top dose mostly 57.9 µM), inactives show at the top dose signal change, negative = less light; human cells with a luciferase reporter of 2A StopGo recoding; control for the full effect not named in the record; active = well fitted falling curve with a large enough effect; inconclusive = small, poorly fitted or top-dose-only effect; inactive = no such curve, though single readings can be large or run the other way; tested in HEK293T cells; note: % is set by controls: 0 for no effect and ±100 for the full control effect; nearly all actives have a fitted effect of over 45% in size; luciferase light after 4 h
Active calls of the source: *; ? = inconclusive; / = not tested or not shown; & = joins results of further samples; [ ] = remark or other dose. Unless noted, calls come from the whole dose curve; as a rule, active = well fitted curve in the direction sought with a large enough effect; inconclusive = small, poorly fitted or top-dose-only effect, or another doubt; inactive = no such curve, though single readings can be large; an effect the other way counts as inactive or inconclusive. Potency is the fitted concentration of half-maximal effect.

SMILES	Cruzain inh noDet	LASV entry inh	Cruzain Triton	Marburg entry inh	RE007 growth inh	SARS PLpro yeast	NS1 inh	StopGo reporter
Cc1ccc(C(=O)CN2CCC(NC(=O)C3CCCCC3)CC2)cc1	?	5%	25µM*	?	3%	-2%	-10%	-20%
Cc1c(Br)ccc(NC(=O)CCN2C(=O)C3C4CCC(C4)C3C2=O)c1C (stereo not given)	-2%	-6%	3.4%	20%	-22%	10%	-1%	38%[activator]
O=C(CN(C(=O)CCC(=O)Nc1nccs1)c1ccc(F)c(Cl)c1)NCc1ccco1	5%	-3%	1.2%	11%&11%[46.1 µM]	-9%	-12%	-3%	-7%
Cn1c(N)c(C(=O)COC(=O)c2ccccc2C(=O)c2ccc(Cl)cc2)c(=O)n(C)c1=O	/	-12%[46.1 µM]	/	?	7%	26%	/	7%
CC(=O)Nc1ccc(S(=O)(=O)NC2=NCN(CCOC(=O)c3ccccc3)CN2)cc1	-4%	-19%	1.5%	6%&6%	10%	-6%	-1%	-3%
COc1ccccc1NC(=O)Cc1noc(CSc2nnc(C)s2)n1	4%	-3%	4.5%	5%	-6%	17%	-1%	-11%
CC(OC(=O)c1ccccc1C(=O)N(C)Cc1ccccc1)C(=O)NC1(C#N)CCCCC1 (stereo not given)	/	3%	/	-10%	?	1%	/	-1%
Cc1nn(Cc2c(F)c(F)c(F)c(F)c2F)c(C)c1NC(=O)c1ccc(COc2ccc(Cl)cc2Cl)o1	0%	?	-7.9%	?	13%	-34%	24%	-10%
OCCCN=C1CCCc2c1[nH]c1ccc(Cl)cc21	/	-2%	/	3%[14.2 µM]	5%	-2%	-37%	-13%
CC(C)Sc1nnc(Cn2c(=O)sc3ccccc32)n1-c1ccccc1	-6%	/	-1.4%	/	-11%	11%	-4%	0%
O=C(NC1CC1)c1ccc(COc2ccc(F)cc2)o1	4%	2%	-0.6%	2%	0%	-7%	-13%	-16%
Nc1ncnc(Nc2cccc(C(F)(F)F)c2)n1	4%	0%	8.4%	-20%	1%	-7%	-7%	14%
C/C(=N\NC(N)=O)C1CC(Cc2ccccc2)C(=O)O1 (stereo not given)	/	14%	/	?	2%	-8%	2%	-7%
Nc1ccc(C(=O)N2CCCC2)cc1CS(=O)(=O)c1ccc(Cl)cc1	/	-17%	/	-25%[46.1 µM]	-8%	0%	/	-13%
COc1ccc(-n2c(/C=C(\C)O)nc(=O)c3c(C)cc(C)nc32)cc1	7%	-46%[14.3 µM]	-8.1%	-1%	2%	3%	-11%	?
O=C(NCc1cccnc1)c1nn2cccnc2c1Cl	/	/	/	/	25%	0%	3%	-8%
c1ccc2ncccc2c1	0%	/	-0.7%	/	-6%	2%	/	-20%
O=C1CCCN2N=C(SCC(=O)Nc3ccc([N+](=O)[O-])cc3)SC2=N1	/	-21%	/	?	-2%	1%	-9%	-1%
CCNC(=S)NNC(=O)c1ccc2ncccc2c1	/	-1%[46.1 µM]	/	1%[46.1 µM]	-14%	2%	/	21%
O=C(NCCc1ccc2c(c1)OCCO2)c1cc2ccccc2o1	-5%	-1%	-6.7%	-18%	?	-13%	-50%	?
O=Cc1cn(Cc2ccc([N+](=O)[O-])cc2)c2ccccc12	?	10µM*	-7.5%	?	18%	-8%	?	?
COc1ccc(-c2noc(CSc3nnc(C)n3-c3ccc(F)cc3)n2)cc1	5%	-17%[46.1 µM]	-3.8%	-11%[46.1 µM]	/	/	/	-15%
Cc1c(Br)c([N+](=O)[O-])nn1CC(=O)Nc1c(C)n(C)n(-c2ccccc2)c1=O	12%	/	-2.9%	/	14%	6%	-4%	-5%
O=c1c2c(c(-c3ccccc3)nn1Cc1ccccc1)CCCC2	/	/	/	/	9%	-3%	-5%	-20%
CCCNC(=O)c1oc2ccc3c(c2c1C)C(O)CC(C)(C)O3 (stereo not given)	/	/	/	/	11%	1%	4%	30%
O=C(CN1CCN(c2ccccc2)CC1)NC(=O)NCc1ccco1	-4%	?	-1.9%	0%	-20%	-4%	19%	-17%
Cc1ccccc1CN1CCC(Oc2ccc(C(=O)NCc3ccccn3)cc2)CC1	/	/	/	/	1%	9%	-12%	-21%
Cc1ccc2oc(-c3ccc(C)c(NC(=O)C(C)(C)Oc4ccc(Cl)cc4)c3)nc2c1	-8%	28%[46.1 µM]	-0.2%	?	/	/	/	25%
COc1ccc(-c2[nH]n(-c3ccc([N+](=O)[O-])cc3)c(=O)c2C=NCc2ccccc2)cc1	?	-2%	-4.4%	16%	10%	14%	5%	-17%
NC(=O)C1CCN(c2cc(Cl)nc(N)n2)CC1	/	1%	/	4%[46.1 µM]	-7%	3%	/	-14%
Cc1ccccc1Nc1nc2nonc2nc1N1CCOCC1	1%	2%	-4.0%	?	5%	-7%	12%	-4%
Cc1nc2ccccc2nc1N1CCOCC1	-10%	0%	-0.7%	7%	-1%	-1%	-6%	-6%
Cc1ccc(-c2csc(N/N=C/C=C/c3ccccc3)n2)cc1	?	-23%	-1.0%	3%	7%	?	?	21%
COc1ccc(-n2nnnc2CNC(=O)C(=O)c2c(C)[nH]c3ccccc23)cc1	/	?	/	3%[46.1 µM]	-5%	0%	/	-4%
O=C(Nc1ccc(Cl)cc1F)c1cnc2sc(N3CCOCC3)nn2c1=O	16%	/	-0.5%	-7%[46.1 µM]	/	/	/	-26%
O=C(Nc1nc2ccc(F)cc2s1)c1cccs1	/	?	/	?	-20%	-12%	/	-13%
CCCn1nnc(NCc2ccc(OCc3cccs3)c(OC)c2)n1	8%	-15%	1.3%	-18%	16%	3%	-20%	-2%
CC1=NN(C(=O)c2ccc(Cn3nc(C)c(Br)c3C)cc2)C(O)(C(F)(F)F)C1 (stereo not given)	?	-32%	-3.9%	8%	2%	-1%	-3%	?
Cc1nnc(NC(=O)c2nc(S(=O)(=O)Cc3ccccc3)ncc2Cl)s1	-13%	?	-0.5%	?	-4%	4%	-8%	5.6µM*
CCC(Oc1ccccc1)C(=O)Nc1ccccc1OC (stereo not given)	1%	-2%	0.6%	-3%	11%	-11%	-36%	/
COc1ccc2oc(=O)c(C(=O)NC(C)c3ccccc3)cc2c1 (stereo not given)	/	18%[46.1 µM]	/	1%[46.1 µM]	11%	13%	3%	-8%
Cc1ccnc(NS(=O)(=O)c2ccc(NC(=O)C3CC=CCC3C(=O)O)cc2)n1 (stereo not given)	/	0%	/	22%[46.1 µM]	1%	0%	2%	1%
COc1ccc(S(=O)(=O)N(CC(=O)Nc2cccnc2)c2ccc(C)cc2)cc1OC	2%	?	-3.3%	/	/	/	/	-4%
CC1Cc2cc(S(=O)(=O)CCC(=O)NCc3ccc(Cl)cc3)ccc2N1C(=O)C1CC1 (stereo not given)	0%	-20%[46.1 µM]	-4.2%	/	/	/	/	-1%
COc1ccc(NC(=O)CCCn2cnc3ccccc3c2=O)c(OC)c1	/	/	/	/	2%	-1%	5%	-12%
OC(CNCCc1c[nH]c2ccccc12)c1ccccc1 (stereo not given)	/	/	/	?	-20%	18%	0%	-13%
O=C(C1CC1)N1CCc2cc(S(=O)(=O)NCCC3=CCCCC3)ccc21	3%	-12%	-1.4%	1%	11%	-14%	-39%	39%[activator]
O=C(c1ccco1)N1CCC(N2CCN(c3ccccc3)CC2)CC1	/	/	/	/	-2%	-1%	-1%	5%
CC1CCCCN1CCNC(=O)c1cc2c(=O)n(C)c3ccccc3c2n1C (stereo not given)	-15%	/	-15%	/	-14%	-3%	4%	-15%
O=c1c2ccccc2nc2c3ccccc3c3nncn3n12	-6%	1%	4.4%	-4%	22%	-1%	-13%	?
CC1Cc2cc(C(=O)O)ccc2O1 (stereo not given)	-4%	1%	-2.6%	10%	-2%	0%	6%	-16%
Cc1c(Cl)cccc1NC(=O)c1ccccc1-c1ccccc1C(=O)O	/	/	/	/	1%	-12%	30%	-9%
COc1ccc(OC)c(S(=O)(=O)CC(O)CS(=O)(=O)c2ccccc2)c1 (stereo not given)	/	/	/	/	9%	0%	-2%	-10%
C#CCOC(=O)c1ccccc1C(=O)n1nnc2ccccc21	-2%	0%	-5.3%	15%	-4%	-2%	-59%	22µM*
CC(C)OC(=O)CN1C(=O)C(C)(C)Oc2ccc(C(=O)NC(C)(C)C)cc21	3%	6%	-1.9%	3%	17%	0%	?	-2%
O=C(Nc1ccccc1)OCc1ccccn1	-1%	14%	-0.6%	24%	-22%	?	-6%	66%[activator]
COc1ccc(-n2[nH]c(C)cc2=O)cc1	-2%	6%	3.2%	8%	-20%	-6%	?	-11%
CCN(C(=O)C1CC1)C1CCS(=O)(=O)C1 (stereo not given)	/	3%	/	-12%[46.1 µM]	6%	0%	/	-13%
Cc1ccc(N(CC(=O)NCc2ccc(OC(C)C)cc2)S(=O)(=O)N(C)C)cc1	9%	5µM*	1.9%	/	/	/	/	?
COc1cc2c(cc1OC)C(COc1ccc3c(C)cc(=O)oc3c1)N(C(=O)C(C)C)CC2 (stereo not given)	-6%	22%[46.1 µM]	5.8%	?	/	/	/	?
(list continues)
SMILES	Cruzain inh noDet	LASV entry inh	Cruzain Triton	Marburg entry inh	RE007 growth inh	SARS PLpro yeast	NS1 inh	StopGo reporter
COc1ccc(NC(=O)CSc2nc3sc4c(c3c(=O)n2-c2ccc(OC)cc2)CCN(C)C4)cc1	/	/	/	/	-3%	-8%	12%	-4%
O=C(Oc1ccc(=O)n(-c2ccccc2)n1)c1ccc(F)cc1	/	/	/	/	-23%	1%	-1%	-17%
Cc1cccc(/C=N/NC(=O)c2ccc(Br)cc2)c1	1%	?	-2.3%	?	/	-9%	-8%	43%[activator]
O=C(c1cc(-c2cccs2)nc2ccccc12)N1CCN(S(=O)(=O)c2ccccc2)CC1	?	-13%	-3.7%	?	-8%	-4%	?	-3%
COCCCNC(=O)c1ccc2nc(CCc3ccccc3)oc2c1	-12%	-3%[46.1 µM]	-0.6%	/	/	/	/	49%[activator]
